gsp agonist – qHTS for Agonist of gsp, the Etiologic Mutation Responsible for Fibrous Dysplasia/McCune-Albright Syndrome: qHTS. gsp mutant cells, cAMP HTRF, 30 min; control for the full effect not named in the record. Potency, µM (highest dose often 76.9 µM), for the others: at the top dose activation (cAMP increase), most hits filed as activators. hit rate 0.13% among 340,000. AID 624287, 2012; active = well fitted activation curve with a large enough effect; inconclusive = small, poorly fitted or top-dose-only effect, or another doubt; inactive = no such curve, though single readings can be large or run the other way; cell line not stated here;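 further: phosphodiesterase inhibitor Ro 20-1724 added with compounds to block cAMP breakdown; potency means the concentration at half of the fitted maximal effect; nearly all actives have a fitted effect of over 60% in size; about a fifth of the inactives were tested at one dose only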
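Cells stably selected in G418 were plated at 2000/well, grown 16-24 hr, then given compounds in DMSO with the PDE inhibitor […] (300 uM solution added) for 30 min at 37C; cAMP was read by HTRF.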
ClpP mod – qHTS Assay for Activators of ClpP | purified B. subtilis ClpP, FRET peptide cleavage, 20 min | hit rate 1.9% among 340,000 | ATP-dependent Clp protease proteolytic subunit (Bacillus subtilis (strain 168)), P80244 | Potency, µM (titrated, usually from 57.5 µM), for the others: top-dose activity change, negative = active; active = well fitted falling curve with a large enough effect; inconclusive = small, poorly fitted or top-dose-only effect; inactive = no such curve, though single readings can be large or run the other way; further: potency means the concentration at half of the fitted maximal effect; the source files actives as falling curves though it sought activators and does not explain the sign; nearly all actives have a fitted effect of over 65% in size; many hits overshoot -100%
Target sequence (P80244 whole entry, looked up): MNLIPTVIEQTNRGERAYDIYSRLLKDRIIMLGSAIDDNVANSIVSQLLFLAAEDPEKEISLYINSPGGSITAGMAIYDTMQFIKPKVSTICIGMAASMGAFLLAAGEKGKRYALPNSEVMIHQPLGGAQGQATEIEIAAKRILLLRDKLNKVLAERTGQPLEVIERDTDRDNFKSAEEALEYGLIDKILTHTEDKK
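FRET quenching reversal measured ClpP activation: 10 microg/mL B. subtilis ClpP at pH 8 with the FRET-FV decapeptide, read at 430 nm after 320 nm excitation. The 20-min minus 0-min signal was scaled between DMSO/no-enzyme wells and ADEP (5.8 microM final).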
PINK1 modulator – A Quantitative High throughput Screen to Identify Chemical Modulators of PINK1 Expression | PINK1 immunofluorescence, high-content cytometry, 24 h | Potency, µM (highest dose often 76.6 µM), for inactives: at the top dose activation (PINK1 increase), hits mostly activators | hit rate 0.2% among 410,000 | AID 624263, 2012; active = well fitted activation curve with a large enough effect; inconclusive = small, poorly fitted or top-dose-only effect; inactive = flat fitted curve, though single readings scatter; cell line not stated here;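 further: potency means the concentration at half of the fitted maximal effect; % of control where 0% means no effect; nearly all actives have a fitted effect of over 65% in size; a mitochondrial uncoupler was the plate control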
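Decision-based qHTS: stable cells, 24 h exposure to five compound concentrations, CCCP as control. Fixed cells stained for PINK1 plus nuclear, mitochondrial and cell markers, cytometer read.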
Menin MLL FP FL – qHTS Assay for Inhibitors Targeting the Menin-MLL Interaction in MLL Related Leukemias: Competition With Fluorescein Labeled MLL-derived Peptide; AID 1766, 2009; 290,000 tested, under 10 active; Fluorescence polarization, fluorescein-MLL peptide displacement from menin; FP activity change, % at 61.4 µM; inconclusive = falling polarisation curve, or a change in total fluorescence; inactive = total fluorescence flat and polarisation flat or rising; no compound was filed as active; the % refers to the polarisation; negative = inhibition;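 further: % of control where 0% means no effect; inhibitors lower the polarisation; unlabelled MLL peptide was the positive control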
Sfp inh – qHTS Assay for Inhibitors of Bacillus subtilis Sfp phosphopantetheinyl transferase (PPTase); Biochemical Sfp PPTase activity, qHTS; Potency, µM, for the others: max response, negative = inhibition, most hits filed as inhibitors; hit rate 3.5% among 310,000; AID 1490, 2009; active means well fitted inhibition curve with a large enough effect; inconclusive means small, poorly fitted or top-dose-only effect, or another doubt; inactive means no such curve, though single readings can be large or run the other way;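 further: the enzyme is Sfp with the accession as filed and its product quenches rhodamine fluorescence; potency means the concentration at half of the fitted maximal effect; 0% = enzyme reaction without inhibitor and -100% = no enzyme wells; top concentration of the series not given in the record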
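Compounds were incubated with enzyme (final 15 nM) for 15 min at room temperature before substrate addition started the reaction. Fluorescence at 525 nm excitation, 598 nm emission was recorded immediately and after 30 minutes.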
gsp antagonist – qHTS for Antagonists of gsp, the Etiologic Mutation Responsible for Fibrous Dysplasia/McCune-Albright Syndrome: qHTS; hit rate 0.4% among 340,000; AID 624288, 2012; Potency, µM (series often up to 76.9 µM), for inactives: at the highest dose activity change, negative = inhibition, hits mostly inhibitors; gsp-mutant cells, cAMP HTRF, 30 min; control for the full effect not named in the record; active = falling curve of any shape with a large fitted effect; inconclusive = falling curve, mostly with a smaller effect; inactive = flat or rising curve; cell line not stated here;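 further: intracellular cAMP measured with PDE inhibitor Ro 20-1724 present during compound exposure; potency means the concentration at half of the fitted maximal effect; on the % scale 0 is the no-effect control and ±100 the full control effect; nearly all actives have a fitted effect of over 65% in size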
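Cells, 2000/well, grown 16–24 h in DMEM 10% FBS with 0.5 mg/ml G418, then compounds plus […] (300 uM addition stock), 30 min at 37C. cAMP read by HTRF (cAMP-d2 and anti-cAMP antibody-K in lysis buffer) after 30 min RT.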
D2 ag – Beta-Arrestin HTS for Positive Allosteric Modulators of the Human D2 Dopamine Receptor: Agonists; activation, % (concentration not given with the values); D(2) dopamine receptor (Homo sapiens), P14416; DiscoveRx PathHunter D2 beta-arrestin, luminescence, 90 min; 100% = 57 uM dopamine signal; hit rate 0.084% among 360,000; in the data active = activation above about 40%; inconclusive = about 15% to 40%; inactive = below about 15%; further: compound concentration not given in the record; the text of the record calls up to 30% inactive
Target sequence (P14416 whole entry, looked up): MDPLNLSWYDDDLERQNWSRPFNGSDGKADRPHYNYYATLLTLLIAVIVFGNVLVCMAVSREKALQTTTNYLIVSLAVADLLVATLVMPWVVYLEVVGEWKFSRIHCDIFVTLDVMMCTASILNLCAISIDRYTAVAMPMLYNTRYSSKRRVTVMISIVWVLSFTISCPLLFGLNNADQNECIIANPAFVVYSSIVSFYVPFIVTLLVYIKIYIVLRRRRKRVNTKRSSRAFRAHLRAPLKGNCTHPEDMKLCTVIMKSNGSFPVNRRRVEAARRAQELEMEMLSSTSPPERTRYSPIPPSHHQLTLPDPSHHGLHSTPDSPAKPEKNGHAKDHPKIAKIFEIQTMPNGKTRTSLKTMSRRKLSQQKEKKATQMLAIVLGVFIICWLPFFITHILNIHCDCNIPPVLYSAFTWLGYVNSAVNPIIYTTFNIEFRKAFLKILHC
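Agonist mode: compounds alone added to overnight-plated D2 PathHunter cells for 90 min at 37 C, with 57 uM final dopamine (EC100) defining full response. Beta-arrestin recruitment detected by chemiluminescent reagent, read after 1 h at ambient temperature.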
Numbers without * were called inactive; ? = inconclusive; nt = not tested or not shown; [ ] = remark or other dose. The order is random; overall some 5.1% were active at least once.

Values run as follows: gsp agonist | ClpP mod | PINK1 modulator | Menin MLL FP FL | Sfp inh | gsp antagonist | D2 ag
COc1ccc(CSc2nnc(-c3ccncc3)n2N)cc1
 : 4%[15.4 µM] | nt | 1.4% | -1.2 | 5% | 7% | -4.7
Cc1c(CCO)c(=O)n2n1CCCC2
 : -22% | -4.5% | -2.6% | nt | nt | 15% | -4.3
CCCCn1c(N)c(N(CCC(C)C)C(=O)CC2CCCC2)c(=O)[nH]c1=O
 : -9% | -1.5% | -0.9% | nt | nt | 4% | -1.6
COC(=O)C1C(c2ccc(N(C)C)cc2)C(C(=O)OC)S(=O)(=O)CS1(=O)=O (configuration not stated)
 : 6%[15.4 µM] | nt | 1.8% | 1.9 | 25% | -17% | -1.2
CN(C1CCCC1)C1CCN(C(=S)Nc2cc(F)cc(F)c2)CC1
 : -3%[15.4 µM] | nt | -0.2% | -13 | 12% | 2% | -1.0
CCC(C)[C@H](NC(=O)CCn1nnc2ccccc2c1=O)C(=O)O (some centres not stated)
 : 8% | 1.4% | -2.1% | 10.0 | 5% | 14% | -1.1
Cc1nc(C(F)(F)F)ccc1C(=O)N1CCC1(C)C(=O)NS(=O)(=O)c1ccccc1Cl (configuration not stated)
 : nt | -0.5% | 0.0% | nt | nt | nt | -5.6
Cc1ccccc1-n1ncc2c1CC(C)(C)CC2NC(=O)CN1CCCC1=O (configuration not stated)
 : 0% | -1.7% | 4.0% | nt | 12% | -1% | -1.3
CC(C)NC(=O)C1CCN(c2ccc(S(=O)(=O)N3CCOCC3)cc2Cl)CC1
 : -5%[15.4 µM] | nt | 0.6% | 2.0 | 23% | -8% | -3.8
CCN(CC)N=Nc1ccc(S(N)(=O)=O)cc1
 : 5% | -0.1% | -0.9% | 3.7 | 0% | -1% | 3.2
CN(C)c1ccc(CNC(=O)CC[C@H]2O[C@@H](n3cnc4c(NC(=O)c5ccccc5)ncnc43)[C@H](O)[C@@H]2O)cc1
 : nt | -5.0% | 0.5% | nt | nt | nt | -1.2
COc1ccc(-n2c(C)c(C)c3c(NCCCN(C)C)ncnc32)cc1
 : 31% | nt | 2.4% | -2.5 | -2% | -4% | -6.6
COc1cccc(NC(=O)CN2C(=O)NC3(CCCc4ccccc43)C2=O)c1 (configuration not stated)
 : -26% | -0.5% | 0.7% | nt | nt | 15% | 3.6
C=C(C(=O)O)C(CCCCCC)C(=O)O (configuration not stated)
 : nt | -2.1% | 1.0% | -7.6 | -27% | 3% | 2.9
COc1ccccc1C(=O)Nc1nnc(SCC(=O)Nc2ccc3c(c2)oc2ccccc23)s1
 : 8%[15.4 µM] | ? | 16% | 6.4 | ? | -11% | 1.5
CC(=O)c1ccc(OCC(=O)NC(=O)NC2CCCCC2)cc1
 : 27% | 0.8% | -0.7% | nt | 4% | -4% | -2.3
O=C(NCc1nnc(SCc2ccccc2)n1-c1ccc(F)cc1)C12CC3CC(CC(C3)C1)C2
 : 0% | -1.8% | ? | -3.3 | -3% | -15% | -2.4
CCC(NC(=O)Nc1ccc(O)cc1)(C(F)(F)F)C(F)(F)F
 : ? | 1.9% | 1.1% | -1.9 | ? | -8% | 13
Cc1cc(=O)oc2cc(OCC(=O)N3CCc4ccccc4C3)ccc12
 : -46%[inhibitor] | 25µM* | -2.7% | 5.8 | 17% | -13% | -2.9
COc1ccc(C(C)=O)cc1CSc1nc2cc(C(=O)O)ccc2c(=O)n1Cc1ccccc1
 : -11% | -13% | 5.3% | 0.2 | -8% | -1% | 2.3
COc1ccc(OC)c(NC(=O)c2nc(S(=O)(=O)Cc3ccccc3)ncc2Cl)c1
 : 10%[15.4 µM] | nt | -1.7% | nt | -5% | 13% | -3.9
COc1ccc(C(=O)NC(=S)NNC(=O)c2ccc(NC(=O)C(C)C)cc2)cc1
 : 1% | 1.4% | 0.7% | nt | 1% | 6% | -3.1
CCCn1nnc(NC(=O)c2ccco2)n1
 : -10% | -2.1% | 2.4%[38.3 µM] | 0.4 | 13% | 4% | -1.6
Nc1c(C(=O)Nc2ccccc2)c2nc3ccccc3nc2n1-c1ccc(O)cc1
 : 17% | ? | 10% | 5.9 | 9% | -1% | -2.0
Cc1cc(C)n(CCSCC(=O)O)n1
 : -16% | 0.6% | nt | -2.1 | -2% | -3% | -0.7
COc1ccc(-c2[nH]ncc2CNCC(C)(C)N2CCOCC2)cc1F
 : 17%[15.4 µM] | nt | 0.5% | -3.2 | 4% | 0% | -3.4
O=C(Nc1ccccc1Br)C1CCN(S(=O)(=O)c2cccs2)CC1
 : 4%[15.4 µM] | 0.1% | -0.6% | nt | nt | 1% | 2.7
CC(C)(C)c1ccc(S(=O)(=O)N2CCSC2)cc1
 : -2% | -11% | 0.1% | -1.2 | 11% | 3% | 0.9
CCN(CC)S(=O)(=O)c1cc(C(=O)N=c2sccn2C)ccc1OC
 : 27% | -2.2% | 0.8% | nt | 35%[activator] | -4% | -3.1
Cc1ccccc1C(=O)NNC(=O)CN1C(=O)c2ccccc2C1=O
 : 33%[15.4 µM] | nt | -0.3% | 2.9 | 0% | 9% | -0.8
COc1cc(CC(NC(C)=O)C(=O)NC2CCN(C(=O)c3ccc(C)cc3)CC2)cc(OC)c1 (configuration not stated)
 : 2%[15.4 µM] | nt | -2.9% | nt | -42% | 9% | 0.3
Cc1nc2c(OCc3ccc(C#N)cc3)cccn2c1N(C)C(=O)CCC1CCCC1
 : nt | -3.0% | -1.6% | nt | nt | nt | 4.2
CCc1nnc(NC(=O)CCC(=O)Nc2ccc(Cl)cc2)s1
 : 0% | nt | 3.3% | 0.5 | 8% | 10% | -1.9
O=S(=O)(Nc1ccccc1)c1ccc(Oc2ncc(C(F)(F)F)cc2Cl)cc1
 : -12% | 2.0% | 3.7% | 3.5 | ? | 9% | 3.9
CCOC(=O)C1=CN(Cc2cccc(F)c2)S(=O)(=O)N(C)C1c1ccc(F)c(Cl)c1 (configuration not stated)
 : nt | -3.3% | 1.0% | nt | nt | -10% | -1.1
C/C(=N/NC(=O)C1CC1(c1ccccc1)c1ccccc1)c1ccco1 (configuration not stated)
 : -17%[15.4 µM] | -25% | 0.1% | 4.3 | -17% | -10% | -4.5
CCCOP(=O)(c1ccccc1)c1ccccc1
 : 0%[15.4 µM] | -1.2% | 8.6% | 1.8 | 20% | 5% | -6.9
Cc1cc(NC(=O)C(Cl)c2ccccc2)no1 (configuration not stated)
 : 0%[15.4 µM] | -4.2% | -1.6% | 0.3 | -2% | 5% | 1.8
O=C(NCCS(=O)(=O)N1CCN(c2ccc(F)cc2)CC1)c1ccco1
 : -17%[15.4 µM] | nt | 0.9% | nt | nt | 6% | -4.0
COC(=O)c1sc2nc[nH]c(=O)c2c1C
 : 2% | 16µM* | -0.2% | 0.1 | 13% | -12% | -2.3
Cc1ccc(C)c(C(=O)N(C)CC(=O)Nc2ccccc2C(F)(F)F)c1
 : -1% | 2.0% | 1.5% | 5.0 | -1% | 8% | -2.2
CCC(Oc1ccc(C)c(C)c1)C(=O)N1CCCN(C)CC1 (configuration not stated)
 : -15% | 3.0% | -0.9% | 0.4 | 1% | 10% | -3.8
CCC(COC(C)=O)Nc1nc2c([nH]1)c(=O)n(C)c(=O)n2C (configuration not stated)
 : -2%[15.4 µM] | nt | -1.2% | 4.8 | 2% | 4% | -4.6
CCCCN(C(=O)/C=C/c1ccco1)c1c(N)n(Cc2ccccc2)c(=O)[nH]c1=O
 : -1%[15.4 µM] | nt | -1.2% | 18 | 6% | 13% | -1.7
O=C(O)/C(=C\c1ccccc1Cl)c1ccc(S(=O)(=O)N2CCCCC2)s1
 : -75%[inhibitor] | 0.3% | -1.4% | 11 | ? | -25% | 0.2
O=C(N/N=C/c1ccc(OC(=O)c2ccco2)cc1)c1ccccn1
 : 19% | nt | 2.9% | 2.0 | -19% | 2% | 2.3
COc1ccccc1C1C(C(=O)c2ccco2)=C(O)C(=O)N1c1cc(C)on1 (configuration not stated)
 : ? | 1.3% | -2.0% | nt | 4% | -8% | 2.3
Cc1noc(C)c1C(=O)OCC(=O)Nc1ccccc1C(=O)NC(C)c1ccccc1 (configuration not stated)
 : -5% | -4.2% | 3.8% | 8.8 | 1% | 3% | -0.6
O=C(c1ccc(S(=O)(=O)N2CCOCC2)cc1)N1CCN(c2cccc(Cl)c2)CC1
 : -52%[inhibitor] | 0.6% | -1.8%[38.3 µM] | 2.6 | 3% | -19% | 0.3
O=C(NNC(=S)NCCCN1CCOCC1)c1ccncc1
 : 10%[15.4 µM] | nt | -1.5% | -2.5 | 28µM* | nt | -3.5
COc1ccc(C2=NCC(CSc3nnc(-c4ccc5c(c4)OCO5)o3)S2)cc1 (configuration not stated)
 : ? | -29% | -0.7% | -0.1 | 2% | 28µM* | 1.0
COC(=O)c1ccc(CN2CCCC(CO)(Cc3ccc(F)cc3F)C2)cc1 (configuration not stated)
 : -54%[inhibitor] | nt | 13% | 13 | 14% | 14% | -4.1
CCN(CC)c1ccc(/C=C(\C#N)C(N)=S)cc1
 : -34%[inhibitor] | 1.3% | 1.9% | ? | ? | 0% | -8.4
O=C(CCc1nnc(CCCCc2ccccc2)o1)NC1CCCC1
 : 23% | nt | -1.4% | 1.9 | 14% | 5% | 1.8
CCOc1ccc(NC(=O)CSCc2cnn(-c3ccccc3)c2-n2cccc2)cc1
 : -15% | 0.4% | -1.2% | -2.0 | 20% | ? | -2.5
COc1cc(/C=C2\SC(c3ccc(C)cc3)=NC2=O)ccc1O
 : ? | 0.3% | -0.8%[38.3 µM] | ? | 22µM* | -23% | -3.5
O=C(CNC(=O)c1cc(-c2ccccc2)nn1-c1ccccc1)Nc1ccccc1Br
 : -13% | 2.1% | 2.4% | nt | nt | -13% | 1.1

Compound activity: PubChem BioAssay, National Center for Advancing Translational Sciences (NCATS)
